Assay outcomes from PubChem BioAssay.
T cruzi repl = blocks replication of Trypanosoma cruzi; T. cruzi beta-gal in NIH3T3, luminescence, 90 h; inhibition, % (test concentration not listed); hit rate 1.4% among 300,000;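 active means mean inhibition across valid replicates above about 55%, limit read from the data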;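 further: signal also drops with host cell toxicity which is not excluded here; 0% = plate median of DMSO wells and 100% = zero luminescence signal; higher percent means less beta-gal luminescence so fewer parasites; stock transfer was 50 nL into about 50 µL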
FGF22 binding = shifts melting point of recombinant human FGF22. recombinant FGF22 thermal shift, SYPRO orange fluorescence; percent of sucrose octasulfate shift, DMSO zero. calls only at 9.99 µM. hit rate 1.5% among 340,000;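 active means melting point raised past a set limit in the mean and every replicate; three in four hits are not shown here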
Target sequence (Q9HCT0 whole entry, looked up): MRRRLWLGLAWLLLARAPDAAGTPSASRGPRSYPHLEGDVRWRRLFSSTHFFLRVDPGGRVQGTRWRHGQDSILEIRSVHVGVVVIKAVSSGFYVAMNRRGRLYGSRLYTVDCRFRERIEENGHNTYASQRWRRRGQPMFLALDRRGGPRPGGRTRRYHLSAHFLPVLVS
UCH37 inh = human UCH37 deubiquitinating enzyme inhibition; Q9Y5K5; purified proteasome/UCH37, Ub-AMC cleavage fluorescence; inhibition, % (test concentration not listed); hit rate 0.33% among 330,000;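 active means mean of two replicates above 20%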;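 further: 0% = compound-free wells with enzyme and 100% = wells lacking proteasome; stock transfer was 100 nL into about 20 µL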
Target sequence (Q9Y5K5 whole entry, looked up): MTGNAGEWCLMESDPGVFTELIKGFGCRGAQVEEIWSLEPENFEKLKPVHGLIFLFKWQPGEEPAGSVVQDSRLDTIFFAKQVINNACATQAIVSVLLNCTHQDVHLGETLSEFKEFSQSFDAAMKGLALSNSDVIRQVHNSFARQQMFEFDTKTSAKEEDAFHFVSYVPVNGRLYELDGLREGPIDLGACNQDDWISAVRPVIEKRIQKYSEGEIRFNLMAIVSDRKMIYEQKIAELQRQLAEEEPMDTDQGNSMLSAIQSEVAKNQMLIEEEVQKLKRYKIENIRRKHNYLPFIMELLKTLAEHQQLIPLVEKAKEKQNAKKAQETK
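Signal – fluorescence, ex 355 nm, em 460 nm · System – Proteasome-bound UCH37 · Input – 0.15 nM proteasome as dispensed · Timing – 30 min preincubation with enzyme, 25 min cleavage at room temperature · Read-out basis – percent inhibition of cleavage signal versus uninhibited and no-proteasome wells · Medium – Tris-HCl pH 7.4 with ATP-MgCl2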
AF4-AF9 inh = blocks AF4 peptide binding to human AF9; P42568; AlphaScreen, biotin-AF4 peptide binding to FLAG-AF9; AID 651704; hit rate 0.47% among 350,000; inhibition, % at 10 µM;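 active means every replicate reaching a set inhibition limit, whatever the replicate mean, cut at about 25% in these data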;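 further: 0% = plate neutral control median and 100% = total signal loss; the record names both 10 and 1 µM as test concentration; the first replicate is given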
Target sequence (P42568 whole entry, looked up): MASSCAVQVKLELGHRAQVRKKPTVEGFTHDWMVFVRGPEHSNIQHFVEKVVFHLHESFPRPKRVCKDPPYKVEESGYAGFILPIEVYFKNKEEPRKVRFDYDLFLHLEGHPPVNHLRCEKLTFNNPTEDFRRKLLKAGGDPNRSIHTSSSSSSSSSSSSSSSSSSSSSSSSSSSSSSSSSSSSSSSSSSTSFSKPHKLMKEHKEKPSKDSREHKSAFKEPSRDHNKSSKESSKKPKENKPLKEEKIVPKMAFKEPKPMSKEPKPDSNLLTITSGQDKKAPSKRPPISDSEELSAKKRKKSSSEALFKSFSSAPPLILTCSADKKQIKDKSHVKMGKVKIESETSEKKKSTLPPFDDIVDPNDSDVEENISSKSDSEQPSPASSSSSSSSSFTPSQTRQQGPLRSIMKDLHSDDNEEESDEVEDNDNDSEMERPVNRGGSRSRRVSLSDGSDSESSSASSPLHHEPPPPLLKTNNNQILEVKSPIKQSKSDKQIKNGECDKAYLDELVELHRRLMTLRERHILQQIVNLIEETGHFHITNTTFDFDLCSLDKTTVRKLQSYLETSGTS
Bfl-1 A1 inh = inhibitors of the anti-apoptotic protein A1, read as caspase activation; MEF A1-2A-BIM cells, Caspase-Glo 3/7 luminescence, 3 h; percent of clofoctol response, vehicle zero; caspase activation, % (test concentration not listed); hit rate 0.066% among 330,000;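 active means over half of replicate activation scores above 10%, or exactly half above 10 with the replicate mean above 10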;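 further: wells of about 30 µL received 50 nL stock; many hits fall short of the cut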
Beta apoptosis = blocks beta cell apoptosis; protection from apoptosis, % (no concentration beside the values); INS-1E cytokine-induced death, ATP luminescence, 48 h; percent of positive-control rescue, neutral wells zero; hit rate 0.8% among 300,000;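 active means all replicates at 75% or more, or half of them and the mean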;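 further: 0% = cytokine-treated negative control wells and 100% = positive control rescue; higher means more ATP so stronger rescue from cytokine killing; wells of about 40 µL received 100 nL stock; the first replicate is given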
rRNA inh HTS = selective bacterial rRNA inhibition in E. coli | GFP signal change (wild-type ribosome), % (test concentration not listed) | E. coli WT GFP vs humanized-ribosome RFP mutants, fluorescence, 24 h; stronger effect = lower value; DMSO median 0, no signal -100 | hit rate 1.6% among 350,000;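 active means significant combined selectivity score with lowered wild-type GFP, culture density cut under 30%, mutant RFP and density less affected; inactive means any of these conditions unmet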; further: one replicate is shown; some compounds called inactive have numbers as strong as hits
Ecoli growth = blocks Escherichia coli growth. OD600, 23 h; stronger effect = lower value. OD600 absorbance (no concentration beside the values). hit rate 0.21% among 330,000. AID 1053175;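 active means OD600 absorbance below the run mean of sample wells minus 3.6 SD, in any replicate, cut at about 0.56 in these data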;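 further: stock transfer was 300 nL into about 60 µL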
rRNA inh HTS OD600 = also measured in rRNA inh HTS; calls as there; OD600 change, %; measured here: OD600 growth;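 optical density of the mix in the first replicate; 0 = DMSO median and -100 = no signal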
rRNA inh HTS RFP = further read-out of rRNA inh HTS, marked with its call; RFP signal change, %; measured here: RFP humanized mutant strains;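 first replicate; 0 = DMSO median and -100 = no signal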
Starred values were filed as active, the others as inactive; i = inactive; nt = not tested or not shown. Some of the compounds tested; rates above refer to the full screens.

Second line of a record – Beta apoptosis	UCH37 inh	FGF22 binding	AF4-AF9 inh	Ecoli growth	rRNA inh HTS	Bfl-1 A1 inh	T cruzi repl	rRNA inh HTS RFP	rRNA inh HTS OD600
CC1CC(C)CN(CCCNC(=O)C2CCN(c3nnc(-n4cccc4)s3)CC2)C1 (stereo not given)
  -5.0	3.5	i	11.7	0.71	12.6	-1.1	5.5	-0.5	9.4
CC1=C(C#N)C(c2ccc(O)cc2)C2=C(CC(C)(C)CC2=O)N1 (stereo not given)
  -2.1	-47.6	nt	nt	0.654	nt	0.3	-8.7	nt	nt
CN(CC(=O)NCCc1ccc(S(N)(=O)=O)cc1)S(=O)(=O)c1ccc(Br)s1
  -2.1	1.4	i	0.8	0.701	2.0	-0.7	-10.3	1.6	1.4
O=C(NCc1cccc(C(F)(F)F)c1)C1CC(c2ccccc2[N+](=O)[O-])=NO1 (stereo not given)
  -8.4	4.5	i	-18.9	0.608	-33.0*	0.7	-9.7	-3.5*	-18.7*
COC(=O)Nc1ccc(Oc2ccccc2)cc1
  -7.3	0.6	nt	nt	0.72	nt	-0.3	-16.5	nt	nt
O=C(NC(=S)Nc1ccccc1O)c1cncc(Br)c1
  -4.0	3.1	i	2.2	0.648	-36.0	0.0	-41.2	-8.3	-74.5
CC(=O)Nc1c2c(nn1-c1ccc(Cl)cc1)CSC2
  -6.8	0.5	i	0.7	0.698	8.0	0.6	-5.6	2.1	23.0
S=C1NC[C@H](Cc2ccccc2)N1CCCCC1CCCCC1
  -10.7	0.2	i	3.5	nt	-0.2	0.0	2.7	12.8	-10.2
Cc1cc(C)nc(N2CCN(C(=O)CCC(=O)Nc3nnc(C(C)C)s3)CC2)n1
  3.2	-5.1	i	-12.1	0.637	-2.2	-0.5	12.5	0.4	-8.3
C[C@@]12CCC=C[C@H]1[C@H](c1ccoc1)N(Cc1ccccc1)C2=O
  -4.5	3.0	i	-5.2	nt	0.7	-0.4	-4.0	-0.5	4.5
CC(=O)c1ccc(N2CCN(C(=O)Cc3n[nH]c(=O)c4ccccc34)CC2)cc1
  -1.4	5.6	nt	0.6	0.708	5.6	-0.7	-2.1	-5.7	5.3
O=C(OC1CCOC1=O)c1cc(-c2cccc(Br)c2)nc2ccccc12 (stereo not given)
  -8.2	1.7	i	1.8	0.709	-8.9	1.5	-1.4	1.1	-7.8
COc1cccc(-c2nc(CCl)cs2)c1OC
  0.2	1.1	i	1.1	0.685	7.2	2.1	-6.8	-1.2	8.8
O=C(Nc1cnn(C23CC4CC(CC(C4)C2)C3)c1)c1cnn2cccnc12
  5.4	3.1	i	-0.5	0.714	-1.0	-1.3	11.2	0.1	1.7
O=C(Nc1nc(-c2ccccc2)c(-c2ccccc2)o1)c1ccc(F)cc1
  43.1	-1.4	nt	nt	0.748	nt	0.2	39.0	nt	nt

Going on with the list.
Second line of a record – Beta apoptosis	UCH37 inh	FGF22 binding	AF4-AF9 inh	Ecoli growth	rRNA inh HTS	Bfl-1 A1 inh	T cruzi repl	rRNA inh HTS RFP	rRNA inh HTS OD600
COc1ccc(C2CC(c3ccc(F)cc3)Nc3nc(N)nn32)cc1OC (stereo not given)
  -9.3	3.1	i	1.1	0.735	2.6	-0.1	10.4	-1.4	3.9
CCOC(=O)CN1C(=O)CC(c2ccccc2)C1=O (stereo not given)
  -6.6	2.6	i	-3.7	0.669	5.0	0.9	1.2	0.8	10.7
Oc1c(Br)cc(/C=N/NC(=S)NCc2ccco2)cc1Br
  1.4	nt	nt	-1.8	nt	-45.2	-0.4	-4.6	-5.0	-68.4
CC(=O)Nc1ccc(-c2cc(-c3ccc(NC(C)=O)cc3)nc(-c3ccccc3)n2)cc1
  -0.7	-197.3	nt	nt	0.705	nt	0.3	5.2	nt	nt
CCCCCCCc1c(C)nc(N2CCOCC2)[nH]c1=O
  -3.9	5.0	nt	nt	0.703	nt	-0.6	-7.9	nt	nt
Cc1nn2c3c(cnc2c1-c1ccccc1)C(=O)CC(c1ccco1)C3 (stereo not given)
  0.2	-0.8	nt	nt	0.748	nt	1.4	23.7	nt	nt
CCN(CC(=O)NCc1ccc(Cl)cc1)C(=O)NCc1ccc(Cl)cc1
  -1.9	2.0	i	2.2	0.652	-4.4	0.6	2.6	0.4	-1.9
C#CCOCCOCCOCCNc1nc(N2CCN(C(=O)C([C@@H](C)CC)n3cc(C(N)COC(=O)C(F)(F)F)nn3)CC2)nc(N2CCN(C(=O)[C@H](CCC(=O)O)n3cc(C(N)CC(C)C)nn3)CC2)n1 (stereo not given in full)
  -6.2	0.0	i	-3.3	nt	4.3	-0.5	-20.3	3.4	10.2
Oc1ccccc1/C=N/n1c(-c2ccccc2)n[nH]c1=S
  -12.5	nt	i	-1.0	nt	-4.2	-0.1	-8.2	0.9	0.1
CCOC(=O)C1NN=C(C(=O)c2ccc(C)cc2)C1c1ccc(C)cc1 (stereo not given)
  -3.9	1.9	nt	nt	0.664	nt	0.7	16.1	nt	nt
CCCCNC(=O)CSc1nc(O)cc(=O)n1C1CCCC1
  -13.5	2.5	nt	-6.7	0.706	14.9	-0.9	-4.9	-1.3	13.7
c1ccc(CCNc2ncnc3c2cnn3-c2ccccc2)cc1
  0.5	3.1	nt	nt	0.658	-52.9*	0.1	31.1	-12.6*	-39.5*
COc1cc2nc(-c3cccs3)oc(=O)c2cc1OC
  nt	-113.4	i	2.9	0.731	10.6	0.7	-18.2	1.5	4.5
O=C(OCc1c(F)cccc1Cl)c1cccnc1Cl
  nt	2.0	i	2.9	0.688	-6.2	-0.7	-8.9	-0.9	-2.2
CCc1nnc2n1N=C(c1ccc(Br)cc1)CS2
  17.2	2.0	i	-2.5	0.666	4.5	-0.5	-3.1	0.4	1.6

Further results follow:
Second line of a record – Beta apoptosis	UCH37 inh	FGF22 binding	AF4-AF9 inh	Ecoli growth	rRNA inh HTS	Bfl-1 A1 inh	T cruzi repl	rRNA inh HTS RFP	rRNA inh HTS OD600
O=C1C(=O)N(CC2COc3ccccc3O2)c2ccccc21 (stereo not given)
  -4.3	2.9	i	4.7	0.647	-13.2	1.8	-17.0	25.8	-11.4
O=C1c2cccnc2C(=O)N1CO
  -2.5	-0.1	nt	nt	0.742	nt	-0.3	-15.9	nt	nt
CN(CC(=O)Nc1c(Cl)cccc1Cl)C(=O)c1ccc(NS(=O)(=O)c2ccc3[nH]c(=O)[nH]c3c2)cc1
  nt	-0.4	i	-1.8	0.665	9.1	nt	nt	-0.9	14.3
CCN1CCCC1CNC1=NCCCCC1 (stereo not given)
  -2.5	0.5	nt	nt	0.722	nt	0.1	-0.3	nt	nt
O=C(CNC(=O)c1nc[nH]c1C(=O)N1CCNCC1)OCc1ccccc1
  -5.2	3.1	i	3.5	0.691	7.4	0.2	-8.0	-0.9	6.2
O=C(c1cccc(F)c1)N1CCC(c2nc3ccccc3s2)CC1
  -5.4	4.9	i	-1.6	0.671	-11.8	-1.0	-8.3	-3.0	-15.6
Cc1cc(C(=O)Cn2cc(C(F)(F)F)ccc2=O)c(C)n1CC1CCCO1 (stereo not given)
  -1.4	1.0	i	0.5	0.657	5.3	-1.0	nt	-4.0	8.4
O=C(O)c1ccc(NS(=O)(=O)c2ccc(Cl)cc2)cc1
  -6.6	2.4	nt	nt	0.692	nt	0.6	-2.8	nt	nt
Cc1ccc(NS(=O)(=O)c2sc3ccc(Cl)cc3c2C)cc1
  -4.8	3.2	i	-0.4	0.675	nt	0.2	-30.1	nt	nt
O=C(CSc1nnc(NC(=O)c2ccc(F)cc2)s1)NC1CC1
  -8.5	1.0	i	0.3	0.672	8.0	0.6	-5.5	0.5	8.6
C[C@]12C=CC(=O)C=C1CC[C@@H]1[C@@H]2[C@@H](O)C[C@@]2(C)[C@H]1CC[C@]2(O)C(=O)COC(=O)CCC(=O)NCCc1ccc(O)cc1
  -0.9	-1.0	i	-2.2	0.681	-6.1	-0.6	10.9	4.2	-7.0
O=C(COC(=O)c1ncc(Cl)c(Cl)c1Cl)Nc1ccc(Cl)cn1
  -3.1	-2.2	i	-0.5	0.699	12.9	0.2	-27.5	3.7	9.0
N#CCCn1cc(/C=N/O)c(-c2cccc([N+](=O)[O-])c2)n1
  -1.2	nt	i	-0.8	nt	15.2	-0.6	-13.4	2.5	-1.4
Cc1ccc(NC(=O)c2ccco2)c(NC(=O)CN2C(=O)c3ccccc3C2=O)c1
  0.5	3.9	nt	nt	0.685	nt	0.5	-2.8	nt	nt
COc1ccc(CC(=O)N2CCN(S(=O)(=O)c3cc(Cl)ccc3Cl)CC2)cc1
  3.1	4.8	i	-9.8	0.688	-9.6	-0.2	nt	0.4	-19.9

More structures
Second line of a record – Beta apoptosis	UCH37 inh	FGF22 binding	AF4-AF9 inh	Ecoli growth	rRNA inh HTS	Bfl-1 A1 inh	T cruzi repl	rRNA inh HTS RFP	rRNA inh HTS OD600
Cn1c(=O)c2nc(SCCO)n(C)c2n(C)c1=O
  nt	0.1	i	-2.8	0.717	30.8	nt	nt	0.1	20.4
CCC1C2CN(C(C)=O)CC=C2C(C#N)=C(N)C1(C#N)C#N (stereo not given)
  -5.4	-14.4	nt	nt	0.732	nt	0.2	10.1	nt	nt
CCOC(=O)CSc1nc2nc(C)cc(C)n2n1
  -9.4	-0.7	i	-1.0	0.741	10.6	-1.0	-0.7	-0.4	15.8
CN(C)S(=O)(=O)c1ccc(NC(=O)CN2CCCc3ccccc32)cc1
  -4.6	0.5	i	2.7	0.638	-15.6	2.4	13.1	1.9	-11.8
Cc1cc(S(N)(=O)=O)c(N)c(S(N)(=O)=O)c1
  -2.4	-50.6	i	-2.0	0.71	21.1	0.1	-17.6	-3.9	19.6
Nc1nnc(SCC(=O)N2CCc3ccccc3C2)s1
  -1.2	0.9	i	-2.7	0.661	8.3	0.3	-8.3	-1.3	4.7
O=C(Nc1cccc(-c2nn[nH]n2)c1)c1ccc(Br)s1
  -11.3	4.9	i	-3.0	0.603	-5.2	-3.8	4.5	-1.3	-6.2
CC(C)n1c(S(=O)(=O)O)nc2ccccc21
  -14.7	1.9	nt	nt	0.748	nt	-0.6	-3.3	nt	nt
CS(=O)(=O)NCc1nnc(SCC(=O)NC2CCCCC2)n1-c1ccc(F)cc1
  -5.9	5.5	nt	nt	0.781	nt	-0.1	-2.1	nt	nt
Cc1cccc(OC2CCN(Cc3c(C(=O)N4CCCC4)nc4ccccn34)CC2)c1
  4.7	0.0	i	1.6	0.679	-7.2	0.5	6.6	-5.5	-10.2
O=C(Nc1nc2c(F)cc(F)cc2s1)C1COc2ccccc2O1 (stereo not given)
  8.4	0.8	i	-5.0	0.647	-44.0	-1.3	-1.0	-7.3	-39.0
CCCCCC(=O)Nc1ccccc1N1CCN(c2ccccc2)CC1
  3.2	2.5	nt	nt	0.685	nt	0.7	33.7	nt	nt
CN(C)C(=O)COc1ccc(S(=O)(=O)c2ccc(OCC(=O)N(C)C)cc2)cc1
  -4.6	-0.1	i	-2.4	0.686	6.1	0.4	-5.9	2.6	13.4
CCCC(C(=O)NCc1ccco1)N(C(=O)CNS(=O)(=O)c1ccccc1)C1CCCC1 (stereo not given)
  -6.4	1.2	nt	nt	0.726	nt	-0.2	7.4	nt	nt
COC(=O)c1cccc(NC(=O)c2ccc[n+]([O-])c2)c1
  -0.3	0.2	nt	13.1	0.677	7.0	1.3	-7.9	-5.9	13.3
